A1 inh: inhibitors of the anti-apoptotic protein A1, read as caspase activation; MEF A1-2A-BIM cells, Caspase-Glo 3/7 luminescence, 3 h; percent of clofoctol response, vehicle zero; caspase activation, % (concentration not given with the values); 330,000 compounds, 0.066% hits;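 active = over half of replicate activation scores above 10%, or exactly half above 10 with the replicate mean above 10; inconclusive = replicate mean below 10 yet half the replicates above 10; inactive = over half of replicates below 10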;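 also: wells of about 30 µL received 50 nL stock; many hits fall short of the cut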
Calb FLC: affects C. albicans growth with fluconazole; C. albicans CaCi-2 (fluconazole-resistant clinical isolate) + fluconazole, Alamar Blue growth, 48 h; growth inhibition, % (concentration not given with the values); 300,000 compounds, 0.57% hits;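 active = most replicates above 75%; inconclusive = exactly half above 75%; inactive = most below 75%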;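 also: all wells also contain fluconazole at 8 µg/ml as a sub-toxic cotreatment; 0% = median of DMSO wells and 100% = median of geldanamycin control wells; wells of about 8 µL received 7.5 nL stock; the first replicate is given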
AF4-AF9 inh: inhibitors of human MLL-AF4/AF9 interaction. P42568. AlphaScreen, biotin-AF4 peptide binding to FLAG-AF9. inhibition, % at 10 µM. 350,000 compounds, 0.47% hits;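 active = every replicate reaching a set inhibition limit, whatever the replicate mean, cut at about 25% in these data; inconclusive = mean inhibition reaches that limit but some replicates miss it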;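 also: 0% = plate neutral control median and 100% = total signal loss; the record names both 10 and 1 µM as test concentration; the first replicate is given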
Target sequence (P42568 whole entry, looked up): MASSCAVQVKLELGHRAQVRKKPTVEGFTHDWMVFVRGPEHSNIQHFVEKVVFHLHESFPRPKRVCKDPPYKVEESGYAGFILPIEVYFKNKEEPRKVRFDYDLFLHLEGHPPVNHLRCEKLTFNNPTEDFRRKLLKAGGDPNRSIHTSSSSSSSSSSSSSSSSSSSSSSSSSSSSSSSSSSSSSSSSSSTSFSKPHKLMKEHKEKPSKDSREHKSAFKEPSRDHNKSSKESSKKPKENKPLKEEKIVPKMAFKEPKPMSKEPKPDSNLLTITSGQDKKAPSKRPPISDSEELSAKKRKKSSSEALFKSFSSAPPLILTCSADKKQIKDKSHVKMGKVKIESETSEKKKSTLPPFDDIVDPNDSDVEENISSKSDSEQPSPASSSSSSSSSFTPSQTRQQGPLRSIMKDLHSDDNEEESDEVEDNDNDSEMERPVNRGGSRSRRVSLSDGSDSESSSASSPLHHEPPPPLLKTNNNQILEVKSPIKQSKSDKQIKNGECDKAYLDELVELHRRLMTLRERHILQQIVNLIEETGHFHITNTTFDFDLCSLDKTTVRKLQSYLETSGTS
T cruzi repl: blocks replication of Trypanosoma cruzi | inhibition, % (test concentration not listed) | AID 1885 | 300,000 compounds, 1.4% hits | T. cruzi beta-gal in NIH3T3, luminescence, 90 h;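 active = mean inhibition across valid replicates above about 55%, limit read from the data; inconclusive = mean below that limit but half or more replicates reach it; inactive = mean below it, under half of replicates reach it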;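 also: signal also drops with host cell toxicity which is not excluded here; 0% = plate median of DMSO wells and 100% = zero luminescence signal; higher percent means less beta-gal luminescence so fewer parasites; stock transfer was 50 nL into about 50 µL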
Vif TR-FRET: inhibitors of Vif binding to APOBEC3G peptide, primary screen, biochemical, TR-FRET, GST-Vif 1-94, biotin-A3G peptide, dose response retest (AID 1117319) | one-dose inhibition, %; IC50 in µM for titrated hits | TR-FRET GST-Vif / biotin-A3G peptide binding; higher % means a stronger effect; test concentration not given here; strong numbers were not always called active | 260,000 compounds, 0.57% hits;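 active = above the screen mean plus three standard deviations and confirmed in dose response; inconclusive = results disagree or hit not tested in dose response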;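 also: Vif residues 1-94 fused to GST binding biotinylated APOBEC3G peptide 110-148; 0% = full assay without inhibitor and 100% = GST in place of GST-Vif; retest series ran down from 100 µM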
LANA-H2A inh: blocks KSHV LANA binding to histone H2A/H2B; Q9QR71; cell-free LANA-H2A/H2B peptide, fluorescence polarization; AID 2629; 320,000 compounds, 0.6% hits; inhibition, % (concentration not given with the values); in the data active = inhibition mostly above about 10%, no sharp cut-off; inactive = mostly below about 6.7%;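 also: stock transfer was 7.5 nL into about 10 µL; 0% = median of vehicle wells and 100% = median of positive control wells; one replicate is shown; the record names a cut of 25% in any replicate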
Beta cell apopt: blocks beta cell apoptosis. INS-1E cytokine-induced death, ATP luminescence, 48 h; percent of positive-control rescue, neutral wells zero. protection from apoptosis, % (no concentration beside the values). 300,000 compounds, 0.8% hits;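 active = all replicates at 75% or more, or half of them and the mean; inconclusive = half reach 75% but not the mean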;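 also: 0% = cytokine-treated negative control wells and 100% = positive control rescue; higher means more ATP so stronger rescue from cytokine killing; wells of about 40 µL received 100 nL stock; the first replicate is given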
RanGTP-Impb inh: disruptors of Ran-importin-beta complex formation – biochemical, FRET, CFP-Ran, YFP-importin-beta, homogeneous, primary screen; inhibition, % (test concentration not listed); 300,000 compounds, 1.1% hits; cell-free CFP-Ran/YFP-importin-beta FRET ratio; AID 2216;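 active = most replicates above 15%; inconclusive = exactly half above 15%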;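 also: 0% = DMSO wells and 100% = Ran loaded with GDP instead of GTP; wells of about 40 µL received 100 nL stock; the first replicate is given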
The depositor's hits bear a star; ? = inconclusive; . = not tested or not shown; & = joins results of further samples.

Second line of a record – A1 inh, Calb FLC, AF4-AF9 inh, T cruzi repl, Vif TR-FRET, LANA-H2A inh, Beta cell apopt, RanGTP-Impb inh
> CCOC(=O)/C(C#N)=C\C1=C(N2CCCC2)CC(C)(CC)OC1 (stereo not drawn)
    0.2, 1, ., 11, 14%, 1.0, 5, 6.0
> CC(C)c1ccc(N(CCc2ccccn2)C(=O)C(C)(C)C)cc1
    0.5, 3, 3.3, 16, ., 1.9, 1, 3.6
> CC1(C)CC(=O)c2c(O)cc(OCC(=O)N3CCN(c4ccccc4)CC3)cc2O1
    0.4, 3, 3.7, 1, ., -1.0, 2, -1.9
> COc1ccc(CC(C#N)(CO)c2nc3ccccc3[nH]2)cc1 (stereo not drawn)
    1.1, -21, ., -9, ., 2.9, ., -2.5
> Cc1ccc(C(=O)NCCc2nnc(SCC(=O)Nc3nc(-c4ccccc4)cs3)n2C)cc1
    -0.6, 1, ., -12, -4%, -0.5, 5, 1.2
> O=C(CCC(=O)c1ccccc1)NC1CCCN(Cc2ccccc2F)C1 (stereo not drawn)
    -0.4, -7, -0.8, 0, ., -3.8, ., -0.1
> COc1ccc(C2C(C(=O)NC(C)C)c3ccccc3C(=O)N2C)cc1OC (stereo not drawn)
    1.1, -1, ., -15, -6%, 0.3, -3, 1.7
> O=C(O)c1cc([N+](=O)[O-])ccc1NCc1ccccc1Cl
    -0.4, 36, -1.7, -21, 4%, -2.6, 2, 1.8
> Cc1cccc(NC(=O)NNC(=O)COc2ccc3ccccc3c2)c1
    -0.4, 4, -7.4, 9, ., -3.7, -1, 5.5
> CN(c1ccccc1)S(=O)(=O)c1cccc(NS(=O)(=O)c2ccc(/C=C/C(=O)O)cc2)c1
    -0.5, -10, 1.3, -9, -8%, -4.2, -1, -4.6
> CCOc1ccc(C(C(=O)NCCC(C)C)N(CCO)C(=O)c2snc(C(N)=O)c2N)cc1 (stereo not drawn)
    0.3, 1, 0.7, 17, -13%, -2.7, 6, 2.7
> Cc1cccc(OCC(=O)N/N=C\c2cc3c(cc2[N+](=O)[O-])OCO3)c1C
    0.2, 8, ., -4, 1%, -1.9, -2, 1.5
> O=C(Nc1ccc(S(=O)(=O)Nc2ncccn2)cc1)c1ccccc1Br
    -0.8, -2, -2.9, -4, -4%, 1.6, -6, -2.2
> O=C1CCc2cc(S(=O)(=O)N3CCN(c4cccc(Cl)c4)CC3)ccc2N1
    0.4, 7, ., 0, 27%, 1.8, -2, -6.6
> Cc1cccc(S(=O)(=O)N2CCN(Cc3ccc4c(c3)OCO4)CC2)c1
    1.5, -35, 2.7, -6, -1%, 3.2, -6, -2.8
> COc1ccc(-n2cnc3scc(-c4ccc(OC)c(OC)c4)c3c2=O)cc1
    -0.6, 6, -0.3, 29, 2%, 0.5, -5, 2.5
> O=[N+]([O-])c1cccc(-n2cc3ccc([N+](=O)[O-])cc3n2)c1
    -1.3, ., 1.2, ., ., 0.6, -1, .
> COc1ccc(CNC(=O)Cn2cncn2)cc1OC
    2.0, 19, -17, -9, ., ., -3, 0.9
> Cn1cnnc1SCC(=O)N1CCC(Cc2ccccc2)CC1
    1.0, 36, ., 22, 4%, -2.9, 0, -1.4
> O=S(=O)(Nc1cccc2cn[nH]c12)c1ccc(F)cc1
    -0.6, 51, ., -6, 3%, -0.2, -5, -16
> Cc1ccccc1-c1nc(CS(=O)(=O)CC(=O)NCCCN2CCCC2)c(C)o1
    ., 0, -3.4, -1, -3%, 1.2, -7, 5.5
> Cn1c(=O)c2c(nc(SCC(=O)O)n2Cc2cccc(C(F)(F)F)c2)n(C)c1=O
    0.5, 12, ., -6, 4%, 2.1, ., ?
> COc1cccc(NC(=O)Cn2c(=O)n(-c3ccccc3)c(=O)c3sccc32)c1
    1.4, -1, 0.7, -1, ., -10, -2, 0.8
> C[C@@H](CSc1ccccc1)CN1CC[C@H](O)CCC1=O
    1.5, -4, -3.6, -1, ., 0.1, -3, 0.8
> COc1ccccc1CCNC(=O)C(=O)NCCC1CCCCN1S(=O)(=O)c1cccs1 (stereo not drawn)
    0.2, -2, 3.6, 32, 1%, -2.2, -5, -0.2
> CCOc1ccc(S(=O)(=O)N2CCC(C(=O)OC(C)C(=O)NC3CCCCC3C)CC2)cc1 (stereo not drawn)
    0.9, ., -14, ., -2%, 0.0, -7, .
> COCCCNC(=O)Cn1c(=O)n(Cc2ccc(F)cc2)c(=O)c2sccc21
    1.0, 0, ., -12, 1%, 0.6, ., 0.9
> CCCN(CCC)Cc1c(C(=O)N/N=C/c2ccsc2)nnn1-c1nonc1N
    0.5, 7, 2.4, -14, ., 8.1, -1, 4.9
> CC(C)NC(=O)C(C)n1cccc1C(=O)c1ccccc1 (stereo not drawn)
    -0.5, -14, ., 6, -7%, -1.8, 1, -3.7
> COc1cccc(C2/C(=C(\O)c3ccc4c(c3)OCCO4)C(=O)C(=O)N2CCN(C)C)c1 (stereo not drawn)
    0.0, ., ., ., -11%, -1.5, -1, .
> Clc1ccc(-c2nnc(-c3cccnc3)o2)cc1
    -2.3, 5, -0.6, -4, -5%, -7.0, -2, 2.3
> O=C(CCNS(=O)(=O)c1cccc2nsnc12)N1CCc2ccccc21
    0.6, 24, ., 9, 1%&12%, 6.1, 2, 3.3
> CC1CC(=O)N(C)c2ccc([N+](=O)[O-])cc2N1 (stereo not drawn)
    -0.2, 9, ., 1, -4%, -4.5, -2, 0.3
> COc1ccc(Sc2ccccc2CN(C)C)cc1OC
    0.8, 3, ., 1, ?, -0.3, -16, 3.1
> CC(=O)c1c(CSc2ccccc2)oc2ccc(O)c(CN(C)C)c12
    0.9, -8, 10, 5, 1%, 2.4, 15, -0.3
> O=S(=O)(NCC(c1ccc2c(c1)OCO2)N1CCOCC1)c1ccc(Cl)cc1 (stereo not drawn)
    0.4, -4, -15, 8, ., -7.5, -3, ?
> Cn1cc(Br)c(C(=O)NNC(=O)Nc2ccccc2C(F)(F)F)n1
    1.1, -11, -0.2, 4, -5%, 0.1, -8, 1.4
> O=C(Nc1ncnc2c1C(c1ccccc1)c1c(ccc3ccccc13)O2)c1ccccc1 (stereo not drawn)
    -1.7, ., 0.8, ., ., 7.1, 82*, .
> Cc1cc(=O)oc(C)c1C(=O)NC12CC3CC(CC(C3)C1)C2
    -0.8, -6, ., -6, -2%, 6.2, 3, 1.6
> CCN(Cc1cc(=O)n2ccsc2n1)Cc1nc2cc(OC)c(OC)cc2c(=O)[nH]1
    -0.2, -7, -4.5, 8, 30%, 8.8, -4, -3.1
> COC(=O)N/N=C/c1cccc(OC(=O)c2ccc3c(c2)OCO3)c1
    -2.3, -2, -0.8, 4, 0%, -1.8, -4, -0.9
> COc1ccc(-c2nnc(N3CCOCC3)c3ccccc23)cc1
    0.2, 35, 2.8, 13, ., 6.7, -4, 0.2
> CC(=O)Nc1ccc(-c2csc(NC(=O)C3=COCCO3)n2)cc1
    0.1, 1, 0.5, -4, 2%, -2.3, ., -1.5
> CCC(C(=O)NCc1ccc(F)cc1)n1nc(C)n2c(cc3occc32)c1=O (stereo not drawn)
    0.3, -10, 1.7, 6, -4%, -1.7, -4, 2.1
> Cn1c(=O)c2cn3c(c2n(C)c1=O)C(c1ccccc1)CC(c1ccccc1)=N3 (stereo not drawn)
    -1.2, 26, ., -10, 7%, -1.1, -14, 1.3
> O=[N+]([O-])c1ccc(N2CCN(C(=S)NC3CCCCC3)CC2)cc1
    -0.7, 13, ., ., 8%, -1.0, 24, -0.6
> CN(NC1OC(=O)c2ccccc21)c1ccc(C(F)(F)F)cc1[N+](=O)[O-] (stereo not drawn)
    1.6, -5, -1.5, 3, ., 8.6, -3, -3.7
> Cc1ccc(/C=N/NC(=O)c2cccc([N+](=O)[O-])c2)o1
    0.6, 0, -3.5, -8, ., -0.2, 1, 1.6
> O=C(OCc1cnc(Cl)s1)c1c(F)cccc1F
    0.1, -14, -1.0, -12, 2%, -1.4, -9, 0.7
> O=P(C(=NCCO)NO)(N1CCOCC1)N1CCOCC1
    ?, -7, 0.9, -8, ., 0.8, -2, -1.3
> Cc1ccc(-c2cc(C(=O)Nc3ccc(S(=O)(=O)Nc4ncccn4)cc3)[nH]n2)c(O)c1C
    0.3, ?, 3.3, -1, 13%, 1.1, -17, 0.5
> CCCC1(c2ccccc2)NC(=O)N(C/C=C/Cl)C1=O (stereo not drawn)
    -0.7, -9, -1.8, -11, ., 2.0, -1, 0.8
> COc1ccc(NC(=O)NCc2ccncc2)cc1
    -0.2, 13, ., -7, -7%, 0.2, ., 3.7
> Cc1ccccc1NC(=O)COC(=O)c1cc[n+]([O-])cc1
    0.6, 5, 6.4, -8, 0%, 8.2, -1, 2.5
> COc1ccc(C2NC(=O)CCC2[N+](=O)[O-])cc1OC (stereo not drawn)
    0.3, -5, -3.8, -1, ., -2.2, 1, ?
> CN1CCN(CCCNC(=O)c2cc3c(=O)oc4ccccc4c3s2)CC1
    -0.5, ., ., ., 11%, -2.9, -3, .
> O=C(c1ccccc1)C(O)C(c1ccccc1)N1CCOCC1 (stereo not drawn)
    1.0, -1, -3.1, -10, 2%, 3.8, -7, -8.6
> CCOC(=O)c1[nH]c(C)c(C(=O)N2CCN(c3ccc(OC)cc3)CC2)c1C
    0.1, -4, 2.9, -8, 5%, 0.3, 0, 4.6
> CCOC(=O)N1CCN(S(=O)(=O)c2cc(Br)cc3c2N(C(=O)CC)CC3)CC1
    0.9, 14, ., 9, 0%, 0.9, 1, 4.3
> CSCC[C@H](NC(=O)[C@@H]1Cc2ccccc2CN1)C(=O)NC1CCCCC1
    0.2, ., -0.5, 13, 6%, -4.3, -4, 1.1

(further entries)
Second line of a record – A1 inh, Calb FLC, AF4-AF9 inh, T cruzi repl, Vif TR-FRET, LANA-H2A inh, Beta cell apopt, RanGTP-Impb inh
> CC(=O)c1c(C)[nH]c(C(=O)COC(=O)CN(C)S(=O)(=O)c2ccc(Cl)cc2)c1C
    0.0, 2, ., -34, 2%, 0.1, -4, -4.0
> COc1ccc(CCNC(=O)c2cc(C(C)C)on2)cc1OC
    0.4, -4, 2.3, -1, -6%, 3.2, -10, 6.1
> CCOC(=O)c1c[nH]c2c(C(=O)c3ccccc3)cc(Cl)cc2c1=O
    0.8, -4, -17, -4, 3%, 1.6, 2, -5.5
> CC(C)CCNC(=O)CSc1nnc(-c2ccc(S(=O)(=O)N3CCCC3)cc2)n1C
    -0.4, -13, ., 3, ?, 3.4, 4, 7.2
> COc1ccccc1NC(=O)C(=O)N/N=C/c1cccs1
    0.3, -11, 6.6, -2, ., -1.7, -4, -1.7

Four entries from above, tab-delimited.
Compound	A1 inh	Calb FLC	AF4-AF9 inh	T cruzi repl	Vif TR-FRET	LANA-H2A inh	Beta cell apopt	RanGTP-Impb inh
CC(=O)c1c(C)[nH]c(C(=O)COC(=O)CN(C)S(=O)(=O)c2ccc(Cl)cc2)c1C	0.0	2	.	-34	2%	0.1	-4	-4.0
COc1ccc(CCNC(=O)c2cc(C(C)C)on2)cc1OC	0.4	-4	2.3	-1	-6%	3.2	-10	6.1
CCOC(=O)c1c[nH]c2c(C(=O)c3ccccc3)cc(Cl)cc2c1=O	0.8	-4	-17	-4	3%	1.6	2	-5.5
COc1ccccc1NC(=O)C(=O)N/N=C/c1cccs1	0.3	-11	6.6	-2	.	-1.7	-4	-1.7

Screens: PubChem, several laboratories
